# Screening results from PubChem BioAssay.
# VDR inh = Inhibitors of the vitamin D receptor (VDR): qHTS; Vitamin D3 receptor (Homo sapiens), P11473; VDR-SRC2-3 peptide fluorescence polarization, 2 h; Potency, µM, inactives show max response, negative = inhibition, actives largely listed as inhibitors; 400,000 compounds, 0.93% hits; AID 504847, 2011; active = well fitted inhibition curve with a large enough effect; inconclusive = small, poorly fitted or top-dose-only effect, or another doubt; inactive = no such curve, though single readings can be large or run the other way; also: series mostly up to about 120 µM
# Target sequence (P11473 whole entry, looked up): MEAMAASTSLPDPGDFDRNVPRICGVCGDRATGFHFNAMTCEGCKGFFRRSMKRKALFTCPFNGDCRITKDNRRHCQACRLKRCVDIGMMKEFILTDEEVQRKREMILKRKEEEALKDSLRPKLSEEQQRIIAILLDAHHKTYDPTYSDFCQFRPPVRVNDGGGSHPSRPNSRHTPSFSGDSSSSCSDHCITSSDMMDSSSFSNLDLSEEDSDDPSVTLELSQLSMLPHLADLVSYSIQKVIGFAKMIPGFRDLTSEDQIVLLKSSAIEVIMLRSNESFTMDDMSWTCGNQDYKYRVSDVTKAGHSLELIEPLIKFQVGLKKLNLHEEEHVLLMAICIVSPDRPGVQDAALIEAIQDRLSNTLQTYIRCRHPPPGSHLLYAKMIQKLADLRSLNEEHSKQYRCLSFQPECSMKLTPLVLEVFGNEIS
#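 After 23 nl compound addition and a short centrifugation, plates sat for 2 hours at ambient temperature; polarization of fluorescence then indicated loss of VDR binding to peptide SRC2-3.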
# An asterisk follows results filed as active; ? = inconclusive; & = joins results of further samples. % is scaled to controls: 0 for no effect and ±100 for the full control effect; potency is read from the fitted curve at half-maximal effect. Only part of the results is shown. The share of hits here may be higher or lower than overall.
structure | VDR inh
COc1ccc2[nH]c(=O)c(CN(Cc3nnnn3Cc3ccco3)C3CCCCC3)cc2c1 | 79.4µM*
Cc1cccc(C)c1NC(=O)CNC(=O)c1ccc(N2CCCC2)c([N+](=O)[O-])c1 | -15.5%
COc1ccc(/C=N/NC(=O)c2ccncc2)cc1[N+](=O)[O-] | -3.3%
COc1ccc(NC(=O)CSC2=NC(=O)CC(C)=N2)cc1 | 15.1%
Cc1ccc(CN(CC(=O)NCc2ccccn2)S(=O)(=O)c2ccccc2)cc1 | 7.4%
CCN(CC)CCOC(=O)/C=C/c1ccccc1 | -0.1%
Cc1nnc(SCC(=O)NNC(=O)COc2ccc(Br)cc2)n1C | -0.5%
CCOc1ccc(CN(C)CC(=O)Nc2cccc3ccccc23)cc1OC | -8.9%
COc1cc(CC(=O)Nc2ccc(Cl)c(C(F)(F)F)c2)cc(OC)c1OC | -21.0%
CS(=O)(=O)c1ccc2nc(NC(=O)Nc3ccccc3F)sc2c1 | 2.0%
O=C(O)c1cc(N2CCCC2)ccn1 | 2.4%
CCn1cc(C(=O)N2CCN(c3cccc(C)c3)C(C)C2)c(=O)c2cc(S(=O)(=O)N3CCOCC3)ccc21 (configuration not stated) | -2.5%
O=C(NCc1ccncc1)c1ccc(Cl)c(S(=O)(=O)N2CCCCC2)c1 | 3.1%
CCNC(=O)CSc1nnc(-c2cccs2)o1 | -9.9%
COC(=O)c1c(NC(=O)C2CC2)sc2c1CCN(C(C)=O)C2 | -12.8%
O=Cc1ccccc1Oc1ccccc1 | 0.4%
COc1cccc(N2C(=O)C(CC(=O)Nc3ccccc3)N(CCc3sccc3C)C2=O)c1 (configuration not stated) | -17.9%
O=C(OCc1cc(=O)n2nc(C3CC3)sc2n1)c1cccc(NC(=O)c2ccccc2Cl)c1 | -1.7%
CCC(CC)c1nn2c(=O)cc(COc3ccc(NC(=O)c4ccccc4Cl)cc3)nc2s1 | -16.8%
O=C(N(c1ccccn1)c1ccccn1)C12CC3CC(CC(C3)C1)C2 | 22.2%
COc1ccc(CCNC(=O)CCNS(=O)(=O)c2cccc3nonc23)cc1OC | -8.9%
O=C(Nc1ccc(F)cc1)c1ccc(-n2cnc3cccnc32)cc1 | 7.6%
COc1ccc(-c2nc(NC(C)=O)sc2-c2ccccc2)cc1 | -4.4%
Clc1ccccc1-c1ccc2ncnc(NCc3cccnc3)c2c1 | -2.7%&46.4%
O=C(CN1C(=O)CSc2ncccc21)Nc1ccccc1F | 2.5%
O=C1C[C@@H](c2ccccc2)Oc2cc(O)cc(O)c21 | -15.6%
COc1ccc(OC)c(NS(=O)(=O)c2ccc3c(c2)CCCN3C(=O)C2CCC2)c1 | -8.6%
O=C(CSc1nc2ccccc2s1)Nc1cc(S(=O)(=O)N2CCOCC2)ccc1O | ?
CC1CCN(C(=O)c2ccc(CSc3ccc(Cl)cc3)cc2)CC1 | -24.3%
CCOc1ccc(NC(=S)N(CCN2CCOCC2)Cc2cc3cc4c(cc3[nH]c2=O)OCO4)cc1 | 2.2%
COc1ccc(NC(=O)c2cc3c(CO)cnc(C)c3oc2=Nc2cccc(C)c2)c(OC)c1 | 11.5%
N=C1SCC(=O)N1c1ncc(Cc2ccc(F)cc2)s1 | 17.2%
O=C(c1cc(-c2ccc(Cl)cc2)on1)N1CCN(c2ccccc2)CC1 | 0.1%
O=C(Nc1ccccc1)N1CCCC2(CCN(S(=O)(=O)c3ccccc3)CC2)C1 | -1.9%
Cc1cccc(CNC(=O)c2ccc(C)c(-n3c(C)nc4cccnc43)c2)c1 | 3.8%
[N-]=[N+]=NC1C[C@H](n2ccc(=O)[nH]c2=O)O[C@@H]1CO (some centres not stated) | 2.5%
CCC(=O)N1CCc2cc(OC)c(OC)cc2C1COc1ccc(OC)cc1 (configuration not stated) | 5.5%
CCN(CC)CCCN1C(=O)c2oc3ccccc3c(=O)c2C1c1cccnc1 (configuration not stated) | 7.2%
CCCCc1c(O)c2ccccc2n(CCCC)c1=O | 0.0%
COc1ccccc1CNC(=O)c1ccc(CNc2c(N3CCCC3)c(=O)c2=O)cc1 | 9.8%
Cc1cc2ncc(-c3ccc(Cl)cc3)cn2n1 | -13.7%
NC1=NC[C@@H](Cc2ccc(O)cc2)N1CCc1cc(C(F)(F)F)cc(C(F)(F)F)c1 | 8.8%
Cc1ccc(CNC(=O)C(NS(=O)(=O)c2cccs2)C(C)C)cc1 (configuration not stated) | ?
CCCCN(C(=O)c1c(C)noc1C)c1c(N)n(CCCC)c(=O)[nH]c1=O | -8.2%
CSCC(C)N1CCC(N2CCC(C(=O)NCc3ccccn3)CC2)CC1 (configuration not stated) | 9.6%
O=C(Nc1ccc2oc(-c3cccc4c(Br)cccc34)nc2c1)c1ccc(F)cc1 | -17.7%
Cc1ccc(COn2nnc3ccc(S(=O)(=O)N4CCOCC4)cc32)cc1 | -2.1%
N#Cc1cnn(-c2ncnc3sc(-c4ccccc4)cc23)c1N | 0.0%
COc1ccc2c(c1)c(C(=O)N1CCN(C)CC1)c(C)n2-c1ccccc1 | -12.0%
NC(=O)C1CCCc2c1n(Cc1ccccc1)c1ccccc21 (configuration not stated) | 4.3%

# (cont.)
structure | VDR inh
CN(CC(=O)Nc1ccccc1Br)C(=O)CCc1nc2ccccc2c(=O)[nH]1 | -4.2%
COc1ccc(OC)c(NC(=O)CCNS(=O)(=O)c2cccc3nsnc23)c1 | 13.1%&-4.1%
O=C(CCC1CCCCC1)NC1=NCCS1 | -4.2%
COc1ccc(/C(N)=N/O)cc1O | -16.6%
COc1ccc(-c2cc(C(F)F)n3ncc(C(=O)N4CCSCC4)c3n2)cc1 | 0.3%
CC(=O)Nc1ccc(CN2CCC(CO)(CCOc3ccccc3)CC2)cc1 | -16.1%
Cc1ccc(N2C(=O)CS(=O)(=O)C23C(=O)N(Cc2ccccc2C)c2ccccc23)cc1Cl (configuration not stated) | 4.7%
CC(=O)NCCC(=O)Nc1nc2c(ccc3ccccc32)s1 | -21.7%
Cc1onc(-c2ccccc2Cl)c1C(=O)NCc1ccco1 | -13.7%
COCc1nnc(NC(=O)c2c(-c3c(Cl)cccc3Cl)noc2C)s1 | -4.9%
O=C(O)CC1(CC(=O)Nc2nccs2)CCCCC1 | -17.8%
CCOC(=O)C1=C(CC)Nc2ccccc2N=C1NC(=O)CCNC(C)=O | 9.5%
Cc1ccc(C(=O)NC(=S)Nc2cccc(NC(=O)c3ccccc3)c2)cc1[N+](=O)[O-] | -11.2%
COc1ccc(NC(=O)CN(C)C(=O)c2ccc(S(=O)(=O)Nc3ccccc3F)cc2)cc1 | 7.3%
COc1ccc(-n2nc(C(=O)NCC(=O)NCCCN3CCCCCC3)c3ccccc3c2=O)cc1Cl | 7.3%
COCc1ccc(CN2CCC(n3nccc3NC(=O)C(OC)c3ccccc3)CC2)o1 (configuration not stated) | 2.4%
CCNc1nc(Oc2ccccc2)nc(OC(C)C(=O)OCC)n1 (configuration not stated) | 11.6%
O=C(CN1CCCCCC1)N/N=C/c1cccs1 | 0.6%
O=C(NCCC1=CCCCC1)C1CCN(C(=O)N2CCOc3ccc(Cl)cc32)CC1 | -1.7%
O=C(Nc1sc2c(c1C(=O)O)CCC2)c1ccccc1Cl | 14.0%
Cn1cnc(S(=O)(=O)Nc2ccc(C(F)(F)F)cc2)c1 | -4.9%
CC(C)(C)c1ccc(Oc2ccc(NC(=O)c3ccccc3C(=O)O)cn2)cc1 | -7.1%
CC(C)NC(=O)Nc1ccc(Br)cc1Cl | -1.2%
O=c1c2sc3ccccc3c2n(Cc2ccccc2F)c(=O)n1CCc1ccccc1 | 6.6%
C=CCN1C(=O)C(CC(=O)NCC)SC1=Nc1ccc(S(N)(=O)=O)cc1 (configuration not stated) | -8.5%
O=C(COC(=O)c1ccc(Br)o1)NCC1CCCCC1 | 3.2%
Cc1ccc(NC(=O)CSc2nc(=O)cc(N)n2-c2ccccc2)cc1 | 11.1%&5.0%
COc1ccc(CC(=O)Nc2ccc(-c3csc(C)n3)cc2)cc1 | 23.6%
O=C(CCS(=O)(=O)c1ccccc1)Nc1ccc(N2CCOCC2)cc1 | 4.9%
O=C1c2ccc(-c3ccc4c(c3)C(=O)N(CCO)C4=O)cc2C(=O)N1CCO | 4.1%
CC1CN(Cc2cc(=O)oc3cc(O)ccc23)CC(C)O1 (configuration not stated) | -4.0%
C=CCNC(=S)N1CCC(C(N)=O)CC1 | -3.0%
CCCn1nc(C(=O)NNC(=O)C2CSC3(C)CCC(=O)N23)c2ccccc2c1=O (configuration not stated) | -7.1%
Cc1ccc(CN2C(=O)CCC2C(=O)NCc2ccc3c(c2)OCO3)cc1 (configuration not stated) | 5.5%
O=C(c1cc(C2CC2)on1)N1CCCC(N2CCN(c3ccc(F)cc3)CC2)C1 (configuration not stated) | 2.2%
CC(=O)NS(=O)(=O)c1ccc(NC(=O)NC2CCCCC2)cc1 | -11.2%
CCOc1ccccc1NS(=O)(=O)c1ccc2[nH]c(=O)[nH]c2c1 | 1.0%
On1c(-c2ccccc2Cl)nc2ccccc21 | 5.8%
O=C1CC(c2ccccc2)CC(O)=C1C=NCc1ccccc1 (configuration not stated) | 8.8%
CC1CCC(NC(=O)CCC(=O)N2CC(C)Oc3ccccc32)CC1 (configuration not stated) | -22.2%
CCn1cc(C(=O)NCCC(C)C)c(=O)c2cc(S(=O)(=O)N(C)C3CCCCC3)ccc21 | -6.9%
COC(=O)Nc1cc(C(F)(F)F)ccc1N1CCN(c2ccccc2)CC1 | 2.3%
C/C(=N/OC(=O)c1cccc(Cl)c1)c1nccs1 | -1.8%
COc1ccc(OC)c(NC(=O)c2cccc(S(=O)(=O)N3CCN(C(C)=O)CC3)c2)c1 | -9.5%
Cc1ccc2nc(NC(=O)CSc3nncc(=O)n3N)sc2c1 | 5.2%
O=C(Nc1ccc(Cl)cc1)c1sccc1-n1cccc1 | 0.2%
O=C(O)CCC(=O)Nc1ccccc1N1CCOCC1 | -15.0%
C=Cc1ccc(Cn2c(C(=O)O)c(CNCc3cc(Br)ccc3OC)c3ccc(C)cc32)cc1 | 5.3%
O=C(C1CCN(S(=O)(=O)c2cccc3nonc23)CC1)N1CCN(c2ccc(F)cc2)CC1 | 8.0%
CCN(CC)S(=O)(=O)c1cccc(-c2nnc(SCCOc3ccc(Cl)cc3)o2)c1 | 6.2%

# Reformatted as labelled records: entries from further up.
O=C(O)CCC(=O)Nc1ccccc1N1CCOCC1
  VDR inh: -15.0%
C=CCNC(=S)N1CCC(C(N)=O)CC1
  VDR inh: -3.0%

# (further entries)
structure | VDR inh
O=C(COC(=O)c1ccc(Br)o1)Nc1ccc(S(=O)(=O)N2CCCC2)cc1 | -6.1%
O=C(Nc1cccc(Cl)c1Cl)c1ccc2c(c1)N(Cc1cccc(Cl)c1)C(=O)c1ccccc1S2(=O)=O | 11.7%
COc1ccccc1NC(=O)c1sc2nc3c(cc2c1N)CN(Cc1ccccc1)CC3 | -2.9%
O=C(Cc1cccc(NC(=O)C2CCN(C(=O)C3CCC3)CC2)c1)Nc1cccc(C(=O)N2CCCCC2)c1 | 10.3%
CCN(CC)C(=O)C(=O)c1c(-c2ccccc2)[nH]c2ccccc12 | 12.5%
COc1ccc(-c2c(C#Cc3ccsc3)c3cc(Br)ccc3n2C)cc1 | ?
CC(C)c1ccc(NC(=O)CC2Oc3ccccc3NC2=O)cc1 (configuration not stated) | 6.4%&-2.9%
COC(=O)CCNC(=O)N1CCN(c2nnc(C)c3c(C)n(-c4ccc(Cl)cc4)nc23)CC1 | 12.2%
CCN1CCc2c(sc(NC(=O)c3ccc(S(=O)(=O)N4CCOCC4)cc3)c2C(N)=O)C1 | 6.8%
Cc1ccc(Nc2c(-c3ccco3)nc3nc(C)cc(C)n23)cc1 | ?
O=C(CCS(=O)(=O)c1ccc(F)cc1)N1CCN(c2ccccc2)CC1 | -1.6%
CNc1nc(-c2ccccc2)cc(-c2ccccc2)n1 | -14.4%
O=C(Nc1cccc([N+](=O)[O-])c1)c1ccc(N2CCCC2=O)cc1 | -15.2%
Cc1nn(Cc2cccc(C(=O)NC(C)c3ccc(C(C)(C)C)cc3)c2)c(C)c1[N+](=O)[O-] (configuration not stated) | -7.5%
Cc1ccc(Cn2c(CN3CCC(C(=O)NCc4cccnc4)CC3)cc3ccccc32)cc1 | 3.3%
Cc1cc(C)c[n+](CC(=O)c2ccc(-c3ccccc3)cc2)c1 | -20.2%
O=C(NCCc1ccc2c(c1)OCCO2)c1ccc([N+](=O)[O-])cc1Cl | 1.9%
CCOC(=O)c1c(Nc2ccc(Cl)cc2)sc(/C=C2\C=Nc3ccccc32)c1O | 10.3%
Cc1cc(=O)cc(C)n1-c1ccc(Cl)c(Cl)c1 | 4.9%
CC(=O)NCCc1nc2cc(NC(=O)c3ccc(Cl)cc3)ccc2n1C | 14.2%
COC(=O)c1c(C(=O)OC)c2ccccn2c1C(=O)c1ccccc1 | -15.0%
CN(C)c1ccc(CNC(=O)c2ccc(NC(=O)c3nsc4ccccc34)cc2)cc1 | -2.0%
Cc1cccc(OCCOc2ccccc2C=C(C#N)C#N)c1 | 50.1µM*
CCOC(=O)N1CCN(C(=O)c2ccc3c(c2)N(C)C(=O)/C(=C\c2ccc(OCC)c(OC)c2)S3)CC1 | 2.9%
O=C(CCNC(=O)c1ccc(Cl)cc1)Nc1cccc(S(=O)(=O)N2CCCCC2)c1 | -5.0%
O=C(c1ccco1)N1CCN(C(=O)C2CC(c3ccc(Cl)c(Cl)c3)=NO2)CC1 (configuration not stated) | -0.7%
CSc1nc(-c2ccccc2)cc(C)c1C#N | -1.3%
